# PINK1 modulator: modulators of PINK1 expression; 0.2% of 410,000 active; PINK1 immunofluorescence, high-content cytometry, 24 h; Potency, µM (highest dose often 76.6 µM), for the others: top-dose activation (PINK1 increase), usual class: activators; active = well fitted activation curve with a large enough effect; inconclusive = small, poorly fitted or top-dose-only effect; inactive = flat fitted curve, though single readings scatter; cell line not stated here;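 note: potency is the fitted concentration of half-maximal effect; % of control where 0% means no effect; nearly all actives have a fitted effect of over 65% in size; a mitochondrial uncoupler was the plate control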
#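 Stable cell line, 250 cells/well, 12 h attachment; compounds pinned at 5 concentrations, 24 h; CCCP control. Fixed with nuclear dye, primary antibodies 12 h at 10 degrees C, secondary plus cell stain; laser-scanning cytometer read.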
# CtBP-E1A inh: blocks the CtBP interaction with E1A | AlphaScreen GST-E1A/His-CtBP binding, 1536-well; hits give low values; control for the full effect not named in the record | AID 651724 | 0.49% of 340,000 active | activity change, % (no concentration beside the values); in the data active means activity change below about -65%; inconclusive means about -30% to -65%; inactive means above about -30%; note: % is set by controls: 0 for no effect and ±100 for the full control effect; compound concentration not given in the record
#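 Steps: dispense buffer (Tris pH 8.0, NaCl 300 mM, TCEP 1 mM, BSA, Tween 20); add 5X protein mix (GST-E1A, His-CtBP, 125 nM each); pin 23 nL compound; 2 h at 37 °C, dark; add 5X beads (50 ug/mL); 1 h; read.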
# D2 agonist: human D2 receptor agonism in beta-arrestin assay; P14416; DiscoveRx PathHunter D2 beta-arrestin, luminescence, 90 min; 100% = 57 uM dopamine signal; activation, % (no concentration beside the values); 0.084% of 360,000 active; in the data active = activation above about 40%; inconclusive = about 15% to 40%; inactive = below about 15%; note: compound concentration not given in the record; the text of the record calls up to 30% inactive
# Target sequence (P14416 whole entry, looked up): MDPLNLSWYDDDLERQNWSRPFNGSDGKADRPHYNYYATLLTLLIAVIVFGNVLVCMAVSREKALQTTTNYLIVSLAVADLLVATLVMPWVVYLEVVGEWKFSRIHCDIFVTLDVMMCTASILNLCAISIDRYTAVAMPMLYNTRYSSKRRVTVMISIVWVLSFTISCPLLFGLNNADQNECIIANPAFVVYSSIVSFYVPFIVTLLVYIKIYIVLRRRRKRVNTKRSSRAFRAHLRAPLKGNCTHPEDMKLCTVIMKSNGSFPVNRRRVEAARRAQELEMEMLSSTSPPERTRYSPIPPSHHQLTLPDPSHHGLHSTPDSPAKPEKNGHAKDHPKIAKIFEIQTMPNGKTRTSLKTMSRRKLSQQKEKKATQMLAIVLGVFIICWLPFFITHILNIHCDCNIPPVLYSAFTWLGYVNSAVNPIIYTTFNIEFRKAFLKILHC
#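 DiscoveRx PathHunter D2 beta-arrestin cells (2,100/well) attached overnight, then compound-stimulated 90 min at 37 C in HBSS/10 mM HEPES/0.1% Tween-20 buffer; beta-galactosidase complementation read by luminescence after 1 h at ambient temperature. Dopamine 57 uM final (EC100) as control.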
# TRPML1 agonist: agonists of human TRPML1 channel. Q9GZU1. TRPML1-expressing cells, Ca2+ dye fluorescence, FDSS; host cell line not named in the record; reference of the full effect not given here. activation, % (concentration not given with the values). 0.12% of 410,000 active. AID 624414; in the data active = activation above about 50%; inconclusive = about 30% to 50%; inactive = below about 30%; note: 0% is about no effect; the text of the record puts the active cut at 80%
# Target sequence (Q9GZU1 whole entry, looked up): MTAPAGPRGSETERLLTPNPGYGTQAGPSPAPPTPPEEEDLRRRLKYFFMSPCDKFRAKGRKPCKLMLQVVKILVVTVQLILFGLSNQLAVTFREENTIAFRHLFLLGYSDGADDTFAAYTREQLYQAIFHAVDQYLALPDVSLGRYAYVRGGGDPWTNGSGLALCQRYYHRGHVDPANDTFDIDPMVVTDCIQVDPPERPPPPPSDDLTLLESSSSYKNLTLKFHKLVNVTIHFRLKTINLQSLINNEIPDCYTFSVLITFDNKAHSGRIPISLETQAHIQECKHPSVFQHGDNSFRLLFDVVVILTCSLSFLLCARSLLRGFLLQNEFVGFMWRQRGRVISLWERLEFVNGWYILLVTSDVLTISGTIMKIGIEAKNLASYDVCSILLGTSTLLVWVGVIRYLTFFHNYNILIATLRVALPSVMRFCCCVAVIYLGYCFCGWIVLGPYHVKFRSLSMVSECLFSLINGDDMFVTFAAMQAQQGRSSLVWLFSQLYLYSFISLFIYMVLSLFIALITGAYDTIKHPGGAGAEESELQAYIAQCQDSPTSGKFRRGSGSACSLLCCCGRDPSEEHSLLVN
#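 Tet-induced TRPML1-DL cells, 1,500 per well, cultured overnight, were loaded with a no-wash Ca2+ dye for 45–90 min. Calcium fluorescence was recorded on the FDSS for 110 s after compound addition, before the EC80 agonist (4 uM 54-4) was added.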
# TRPML1 blocker: blocks the human TRPML1 channel; Q9GZU1; TRPML1-inducible cells, Ca2+ dye fluorescence, FDSS; hits give low values; inhibition of EC80 agonist-evoked calcium signal; activity change, negative = inhibition, % (test concentration not listed); 0.02% of 390,000 active; AID 624415; in the data active means activity change below about -50%; inconclusive means about -30% to -50%; inactive means above about -30%;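 note: stimulus is agonist 54-4 at its EC80 concentration; % is set by controls: 0 for no effect and ±100 for the full control effect; compound concentration not given in the record; the text of the record puts the active cut at -80%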
#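 Tet-induced TRPML1-DL cells loaded with Ca8 no-wash calcium dye were read kinetically on FDSS. Compound addition was followed by EC80 agonist 54-4 (4 uM final); inhibition was read over 110 s.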
# Six1-Eya2 inh: Six1/Eya2 interaction inhibition. Q15475+O00167. AlphaScreen GST-Six1/His-Eya2 binding, biochemical; hits give low values; control for the full effect not named in the record. activity change, % (no concentration beside the values). 0.56% of 360,000 active. AID 651725; in the data active = activity change below about -65%; inconclusive = about -30% to -65%; inactive = above about -30%; note: % is set by controls: 0 for no effect and ±100 for the full control effect; compound concentration not given in the record
#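 AlphaScreen luminescence read after one hour at 37 °C in darkness. Pin-transferred compounds met GST-Six1 and His-Eya2 protein (5X stock 250 nM/500 nM) plus glutathione donor and Ni-chelate acceptor beads (5X, 50 ug/mL).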
# Active calls of the source: *; ? = inconclusive; . = not tested or not shown; [ ] = another dose, or the depositor's remark.
canonical_smiles	D2 agonist	Six1-Eya2 inh	PINK1 modulator	TRPML1 agonist	CtBP-E1A inh	TRPML1 blocker
CC1CSc2nnc(CCc3ccccc3)n21 (stereo unspecified)	-3.1	9	-2.5%	0.9	5	13
CCCCSc1nc2[nH]ncc2c(=O)[nH]1	-2.3	9	-0.7%	-0.4	7	-13
CCC(=O)Nc1cccc(C2=NOC3(C2)C[C@H](C(N)=O)N(C(=O)CC#N)C3)c1 (stereo partly specified)	-3.4	2	1.5%	-0.5	-3	-3
O=C(NC1CCOc2ccccc21)c1ccc(=O)[nH]c1 (stereo unspecified)	0.7	13	-2.2%	1.4	-24	28
O=C(CN(C(=O)c1csnn1)c1cccc2c1CCCC2)NC1CCCC1	-2.8	9	-0.4%	-0.9	1	18
O=C(c1ccccc1)c1cc([N+](=O)[O-])ccc1N1CCOCC1	-5.4	-3	4.1%	-0.7	-1	-4
CN1CCN(c2ccccc2NC(=O)c2ccccc2F)CC1	-1.9	-3	-1.8%	4.9	-13	0
O=c1[nH]c(=S)ccn1C1OC(CO)C(O)C1O (stereo unspecified)	-6.0	5	2.5%	.	10	.

# The closing 4 records of the part above are carried over, then new ones follow:
canonical_smiles	D2 agonist	Six1-Eya2 inh	PINK1 modulator	TRPML1 agonist	CtBP-E1A inh	TRPML1 blocker
O=C(CN(C(=O)c1csnn1)c1cccc2c1CCCC2)NC1CCCC1	-2.8	9	-0.4%	-0.9	1	18
O=C(c1ccccc1)c1cc([N+](=O)[O-])ccc1N1CCOCC1	-5.4	-3	4.1%	-0.7	-1	-4
CN1CCN(c2ccccc2NC(=O)c2ccccc2F)CC1	-1.9	-3	-1.8%	4.9	-13	0
O=c1[nH]c(=S)ccn1C1OC(CO)C(O)C1O (stereo unspecified)	-6.0	5	2.5%	.	10	.
CSc1nnnn1-c1c(C)cc(C)cc1C	-0.5	3	2.2%	0.6	3	16
Oc1c(Br)cc(Br)cc1C=Nc1ccc2c(c1)OCCO2	-5.5	-6	2.0%	2.4	.	-5
COc1ccc(/C=C/c2c([N+](=O)[O-])c(=O)n(C)c(=O)n2C)cc1	-4.5	-13	4.6%	0.1	-2	15
COc1ccc(Cl)cc1NC(=O)CN(C)C(=O)c1cccc(-n2cnnn2)c1	-5.3	-2	-0.7%	0.6	-19	-7
CCC(C)[C@H](NC(=O)N1CCN(C)CC1)C(=O)OC (stereo partly specified)	-2.0	4	-0.2%	0.4	-7	21
Cc1ccc([N+](=O)[O-])c(C(=O)Nc2cccnc2Cl)c1	5.2	6	-0.7%	0.5	.	-7
CCOC(=O)CSc1ncnc2c1sc1nc(N3CCOCC3)c3c(c12)CCCC3	0.1	1	0.1%	0.2	8	-6
Cc1cc(C(=O)NCc2nc(-c3ccccc3)no2)ccc1[N+](=O)[O-]	-1.6	-3	-0.1%	1.4	0	18
COc1cccc(CCc2nnc(CCC(=O)NCCc3cccc(C)n3)o2)c1	-19	5	-1.5%	-0.3	-1	-9
COc1ccc(C2(O)CN(c3ccccc3)C3=[N+]2CCS3)cc1OC (stereo unspecified)	-4.5	5	0.5%	-1.4	-5	5
COc1ccccc1N1CCN(CCCN2CC(=O)N3CCCCC3C2=O)CC1 (stereo unspecified)	0.2	11	1.6%	1.1	-2	-8
OCCSc1nc(-c2ccccc2)nc2c1CCC2	-6.1	-4	-1.6%	1.2	.	15
CS(=O)(=O)N(CC(=O)N1CCN(Cc2ccc3c(c2)OCO3)CC1)c1ccc2c(c1)OCO2	-0.5	1	8.3%[38.3 µM]	0.9	-17	-10
Cc1cc(NC(=O)COC(=O)Cn2c(C)csc2=O)ccc1Br	-0.3	-6	0.3%	-0.2	2	4
COCCNC(=O)c1cccc(OC2CCN(Cc3ccccc3OCCO)CC2)c1	-5.5	-14	2.4%	0.2	-5	43
Cc1c(C(c2cccc([N+](=O)[O-])c2O)c2c(C)n(C)n(-c3ccccc3)c2=O)c(=O)n(-c2ccccc2)n1C	0.0	9	3.1%[38.3 µM]	-0.8	9	6
N#Cc1nc(-c2ccccc2)oc1N1CCCCC1	-2.7	-6	-5.4%[38.3 µM]	2.9	-7	27
Cc1nc2c(cnn2CCO)c(=O)[nH]1	-0.5	-2	2.8%	0.2	-9	-9
C=CC[N+](C)(C)CCN1C(=O)C2C(c3ccccc3)C=CC(c3ccccc3)C2C1=O (stereo unspecified)	-1.0	-18	-2.1%	-0.5	3	-16
CCOc1ccc2[nH]c(=O)c(CN(CCO)C(=O)c3ccc(Br)cc3)cc2c1	-3.4	4	?	2.0	-3	-11
CCOC(=O)c1c(-c2cccc([N+](=O)[O-])c2)csc1NC(=O)CCCOc1ccccc1OC	9.0	-19	-2.2%	0.8	-10	-11
COC(=O)[C@H]1C[C@@]2(O)CN(S(=O)(=O)c3ccc(C)cc3)C[C@@]2(OC(=O)NCc2ccco2)C[C@H]1C(=O)OC	-6.9	0	-0.2%	-0.1	3	-6
CCCCC[C@@H]1C=C(C(=O)O)[C@H](c2ccc(Cl)cc2)N1S(=O)(=O)c1ccc(C)cc1	-2.5	-4	0.5%	0.9	2	-4
N#Cc1cccc(NC(=O)CCc2ccc(S(=O)(=O)N3CCOCC3)cc2)c1	-1.3	8	-1.4%	0.4	2	2
Cc1cccc(NC(=O)C2CC(=O)OC23CCCC3)c1 (stereo unspecified)	-2.2	-2	-1.7%	2.3	5	2
O=c1c(Cc2ccc(Cl)cc2)c(O)ccn1Cc1ccncc1	-5.7	7	-0.2%	0.7	6	-5
Cc1cccc(C(=O)NC(=S)NCc2cccnc2)c1	0.0	2	-1.9%	1.0	8	?
CCOc1cccc(Nc2nn(-c3ccc(OC(F)(F)F)cc3)nc2C(C)=O)c1	.	.	2.8%	-0.3	.	-13
CC1=CNC(=O)CC(C)(C)C1	-3.8	6	0.4%	0.3	3	.
COc1cc(/C=C2/NC(=O)NC2=O)cc(Br)c1OCc1cccc(C(=O)O)c1	-3.5	-14	2.1%	0.1	-15	24
CC(C)(O)CCCC(C)(O)c1ccc(C(=O)O)cc1O (stereo unspecified)	-5.6	-3	-0.6%	.	-15	.
CCOc1ccccc1NC(=S)N1CCN(c2ccccc2F)CC1	-2.9	-7	1.3%	-0.5	-5	-4
CCc1ccnc(NS(=O)(=O)c2ccc3c(c2)CCO3)c1	-2.7	3	0.7%	3.0	6	8
COc1ccc2cc3c(N)nn(C(=O)Cc4ccc(Cl)cc4)c3nc2c1	-0.1	-9	0.4%	-0.9	-9	-19
Cc1cccc(C)c1-n1nnnc1C1(C)CCC(=O)N1C1CC1 (stereo unspecified)	.	8	0.3%	-0.5	3	.
COc1ccccc1N1CCN(CC(=O)NC(=O)NCc2ccco2)CC1	-6.8	2	1.8%	0.8	-8	21
Cc1c(C(=O)Nc2cc(F)ccc2F)sc2nc(-c3ccc(F)cc3)cn12	.	.	-2.0%	2.9	.	12
CCOC(=O)N1CCN(c2c(NCCN3CCN(Cc4ccccc4)CC3)c(=O)c2=O)CC1	-2.9	4	2.4%	-0.2	3	-7
CCc1ccc2nc(SCC(=O)N3CC(=O)Nc4ccccc43)c(C#N)cc2c1	-1.7	-1	1.3%	7.3	-6	20
Cc1cc(OC(=O)c2ccccc2Cl)ccc1N1C(=O)CCC1=O	-0.6	?	-1.5%	-0.3	-3	16
O=C(NCCc1cccc(Cl)c1)c1cccs1	1.0	0	1.0%	-0.3	8	-12
Cc1nnc2sc(-c3csc4c3CCCC4)nn12	1.1	-5	-1.5%	2.0	-15	-5
C=CCn1c(C(CCC(C)C)CC(C)(C)O)n[nH]c1=S (stereo unspecified)	-0.7	1	5.5%[38.3 µM]	-0.6	3	-4
CC1(CC(=O)O)C(=O)N=C2C=CC=CN21 (stereo unspecified)	-0.8	6	4.2%[38.3 µM]	0.1	9	-7
Cc1ccc(S(=O)(=O)N2CCN(C(=O)Cc3c(F)cccc3Cl)CC2)cc1	-6.1	4	-0.1%	0.9	8	-7
CCOC(=O)[C@]12CCCC=C1N(Cc1ccc(Cl)cc1Cl)C(=O)[C@H](CC(=O)N1CCCC1)C2	.	-12	0.8%	-0.2	0	.
Cc1ccc(CNC(=O)CN(C)S(=O)(=O)c2cnc[nH]2)cc1	-2.1	-6	-1.6%	0.3	11	11
CSc1ccc(CN(C)C(=O)CNC(=O)c2sc3ccccc3c2Cl)cc1	-2.3	-3	0.2%	1.0	4	-11
CC(CCc1ccccc1)NC(=O)CCN1N=C(c2ccccc2)CCC1=O (stereo unspecified)	-2.5	0	0.7%	0.5	0	-2
Cc1ccc(NC(=O)CSc2n[nH]c(-c3ccc(F)cc3)n2)cc1F	.	.	-0.2%	3.2	.	26
C/C(=C\C(=O)c1ccc(Br)cc1)Nc1ccc(Cl)cc1	-2.8	-1	0.5%	3.0	-1	67
CCN1CCN(C2=C(NS(=O)(=O)c3ccc(Br)cc3)C(=O)c3ccccc3C2=O)CC1	?	-24	-1.1%	-0.6	.	1
O=C(CCCCCCN1C(=O)c2ccccc2C1=O)Nc1nccs1	-0.6	-3	-0.8%	3.6	-6	56
COc1cccc(CNCCSc2nnnn2C)c1OCc1ccccc1F	.	.	-0.1%	0.1	.	34
COCCNC(=O)C1CCCN(C(=O)COc2ccc(C(C)(C)C)cc2)CC1 (stereo unspecified)	-0.6	3	3.3%	0.0	4	-8
CCN(CCN(C)C)C(=O)c1ccc2c(c1NCCO)C(=O)c1ccccc1C2=O	-2.9	?	0.4%	0.4	-3	8

# Next results follow.
canonical_smiles	D2 agonist	Six1-Eya2 inh	PINK1 modulator	TRPML1 agonist	CtBP-E1A inh	TRPML1 blocker
COCCN(Cc1ccc(C)c(Br)c1)S(=O)(=O)c1ccc2[nH]c(=O)ccc2c1	.	.	-4.8%	2.2	.	-8
CCOc1ccc(NC(=O)c2c(OC)cccc2OC)cc1	-6.6	-1	2.3%	-0.5	7	1
COc1ccc(OC)c(N(CC(=O)Nc2cccc3ccccc23)S(C)(=O)=O)c1	-3.7	-2	2.2%	-0.7	7	6
COc1ccc(N2CCN(CC(O)COc3ccc(F)cc3)CC2)cc1 (stereo unspecified)	-0.5	-5	1.4%	0.5	-1	7
Cc1cc(-c2nnc(SCC(=O)Nc3nc(-c4ccc(Cl)cc4)cs3)o2)no1	-2.8	-9	-0.7%	.	-13	.
Cc1ccc(S(=O)(=O)N2CCN(Cc3cc4c(cc3Br)OCCO4)CC2)cc1	4.2	-1	1.3%	0.5	-7	13
Cc1nn(CCC(=O)NCc2cccc(Br)c2)c(=O)c2nn(-c3ccccc3)c(C)c12	.	.	-0.5%	0.5	.	3
COc1cc(CCCN2C(=S)NC[C@@H]2c2ccccc2)cc(OC)c1OC	0.5	-6	0.0%	-0.1	-2	-6
CCOC(=O)c1ccc2c(c1)nc(SCc1cn3ccsc3n1)n2CC	0.0	-7	-0.5%	1.3	-9	21
